Rango-impB inh = qHTS Assay for Inhibitors of Rango (Ran-regulated importin-beta cargo) - Importin beta complex formation; Importin subunit beta-1 (Homo sapiens), Q14974; hit rate 0.031% among 340,000; Rango CFP/YFP FRET sensor + importin beta, 45 min; Potency, µM (top dose mostly 92.2 µM), inactives show top-dose inhibition of complex formation; AID 540263, 2011; active = rising FRET ratio curve, often small or poorly fitted; inconclusive = mostly compound fluorescence or quenching in the first reads; inactive = flat curves in all reads;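 further: potency means the concentration at half of the fitted maximal effect; 0% = DMSO wells and 100% = buffer wells lacking importin beta; nearly all actives have a fitted effect of over 15% in size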
Target sequence (Q14974 whole entry, looked up): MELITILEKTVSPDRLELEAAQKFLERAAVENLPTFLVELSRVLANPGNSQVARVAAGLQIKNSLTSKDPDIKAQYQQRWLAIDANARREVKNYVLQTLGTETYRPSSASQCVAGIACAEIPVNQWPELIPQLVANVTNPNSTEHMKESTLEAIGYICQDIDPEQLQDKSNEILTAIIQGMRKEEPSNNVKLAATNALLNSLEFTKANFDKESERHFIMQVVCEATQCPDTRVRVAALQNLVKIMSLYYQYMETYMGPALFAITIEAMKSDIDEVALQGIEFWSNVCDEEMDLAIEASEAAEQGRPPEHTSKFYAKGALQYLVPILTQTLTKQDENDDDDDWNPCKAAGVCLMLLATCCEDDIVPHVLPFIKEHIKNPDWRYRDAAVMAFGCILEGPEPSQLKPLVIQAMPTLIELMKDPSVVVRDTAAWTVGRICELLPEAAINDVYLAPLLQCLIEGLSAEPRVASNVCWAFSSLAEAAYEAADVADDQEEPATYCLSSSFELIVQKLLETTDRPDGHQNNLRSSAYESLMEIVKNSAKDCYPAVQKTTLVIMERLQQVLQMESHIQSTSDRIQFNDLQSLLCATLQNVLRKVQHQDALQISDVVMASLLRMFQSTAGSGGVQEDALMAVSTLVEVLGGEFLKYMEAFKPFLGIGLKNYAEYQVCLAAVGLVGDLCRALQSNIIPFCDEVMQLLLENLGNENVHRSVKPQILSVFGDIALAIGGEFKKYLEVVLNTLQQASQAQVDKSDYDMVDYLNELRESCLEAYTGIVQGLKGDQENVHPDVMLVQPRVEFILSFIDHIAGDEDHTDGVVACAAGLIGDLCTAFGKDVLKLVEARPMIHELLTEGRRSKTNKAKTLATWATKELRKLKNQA
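FRET biosensor (snurportin 1 IBB flanked by EYFP and cerulean), 50 nM, with compound 5 min, then 0.125 microM importin beta in PBS, 1 mM DTT, 0.02% Tween-20, 0.1% BSA. CFP/YFP ratio read after 45 min at room temperature; pre-read flags interference.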
GLA inh pH 4.5 = qHTS Assay for Inhibitors of Human alpha-Galactosidase at pH 4.5. Alpha-galactosidase A (Homo sapiens), P06280. purified enzyme, 4-MU-alpha-Gal fluorescence, pH 4.5. activity change, negative = inhibition, % at 105 µM. 230,000 tested, under 10 active. AID 1467, 2008; inconclusive = small, poorly fitted or top-dose-only inhibition, or a rising curve; inactive = flat fitted curve, though single readings scatter; no compound was filed as active;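 further: 0% = full activity with enzyme and -100% = basal without enzyme; dose as in the result columns while the protocol names 77 µM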
Rango release inh = qHTS Assay for Inhibitors of RanGTP induced Rango (Ran-regulated importin-beta cargo) - Importin beta complex dissociation | Snurportin-1 (Homo sapiens) + GTP-binding nuclear protein Ran (Homo sapiens) + Importin … | Biochemical FRET Rango-importin beta, RanGTP-induced dissociation | Potency, µM (top dose mostly 46.1 µM), for the others: top-dose activity change, negative = inhibition | hit rate 0.071% among 340,000 | AID 540253, 2011; active means falling FRET ratio curve, often poorly fitted, with flat reads before Ran was added; inconclusive means other falling curves, or compound fluorescence or quenching; inactive means flat or rising ratio curve;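 further: potency means the concentration at half of the fitted maximal effect; % of control where 0% means no effect; nearly all actives have a fitted effect of over 45% in size; -100% = wells without RanGTP and RCC1; the record marks most hits as doubtful in a second field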
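Rango FRET biosensor (snurportin-1 IBB flanked by N-terminal EYFP and C-terminal CFP10) at 0.1 uM, with 0.25 uM importin beta in PBS, 1mM DTT, 0.02% Tween-20, 0.1% BSA. 0.6 uM Ran, 2mM GTP and 0.2 uM RCC1 were then added for 45 min at room temperature. Inhibition read as loss of FRET rise.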
miR-21 FLuc = qHTS Assay for Modulators of miRNAs and/orActivators of miR-21; 340,000 tested, under 10 active; Potency, µM (titrated, usually from 38.3 µM), inactives show at the top dose reporter change, positive = more light; HeLa miR-21 FLuc reporter, luciferase, 48 h; active = well fitted rising curve with a large enough effect; inconclusive = small, poorly fitted or top-dose-only effect; inactive = no such curve, though single readings can be large or run the other way;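 further: % of control where 0% means no effect; miR-21 action dims this reporter so a rising signal means less miR-21 action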
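Luminescence from a firefly luciferase reporter carrying a miR-21 binding site downstream, stably expressed under a CMV promoter in HeLa cells that make miR-21 endogenously, reports miRNA modulation after 48 h compound exposure up to approximately 40uM final.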
Numbers without * were called inactive; ? = inconclusive; . = not tested or not shown; & = joins results of further samples.

Rango-impB inh	GLA inh pH 4.5	Rango release inh	miR-21 FLuc	SMILES
-0.2%	-7	8%	-3%	O=C(COC(=O)CCc1ccc(S(=O)(=O)N2CCCCC2)cc1)Nc1cccc2ccccc12
5.7%	.	-8%	.	O=C(COC(=O)c1nc(Cl)ccc1Cl)NC1CCCCC1
-6.8%	.	-1%	0%	COc1ccc(C2(c3ccc(OC)cc3)NC(=O)N(CC(=O)Nc3cc(C)ccc3OC)C2=O)cc1
5.2%	1	-8%	-2%	COc1cccc(/C=N/N2CCN(C3c4ccccc4-c4ccccc43)CC2)c1O
-1.5%	0	-12%	0%	CCOc1cc(C2CC(=O)NC(SCC)=C2C#N)ccc1O (stereo unspecified)
-0.7%	-5	12%	-5%	Cc1cc2c(cc1C)CSC(c1ccc(O)cc1)SC2
1.6%	-5	21%	9%	CN1CCN(C(c2cccnc2)c2ccc3cccnc3c2O)CC1 (stereo unspecified)
0.4%	.	11%	.	O=C(C[C@H]1C/C=C\CC[C@H](Cc2ccc(F)cc2)C(=O)OC[C@@H]2CCCN2C1=O)N[C@H](CO)Cc1ccccc1

Taken from above:
O=C(COC(=O)c1nc(Cl)ccc1Cl)NC1CCCCC1 | Rango release inh: -8%
CCOc1cc(C2CC(=O)NC(SCC)=C2C#N)ccc1O (stereo unspecified) | GLA inh pH 4.5: 0

The list continues:
Rango-impB inh	GLA inh pH 4.5	Rango release inh	miR-21 FLuc	SMILES
0.8%	.	-13%	.	c1ccc(-c2cc(-c3nc(-c4ccccn4)no3)c3ccccc3n2)cc1
?	-3	-16%	-6%	O=C(N/N=C/c1ccc(-c2ccc(Br)cc2)o1)c1ccc2c(c1)OCO2
-4.4%	.	-15%	0%	O=C(CC(c1ccccc1)c1ccccc1)Nc1ccc(O)cc1
0.5%	.	-1%	.	COc1ccccc1N(C)S(=O)(=O)c1ccc(C(=O)Nc2nccs2)cc1
1.1%	5	6%	-4%	O=C(O)CCn1nnc(-c2cccs2)n1
-0.7%	-7	-8%	-2%	CC(=Nc1ccccc1)C1=C(O)COC1=O
-2.1%	-2	12%	-4%	Cc1ccc(S(=O)(=O)N(C)C)cc1-n1c(SCC(=O)Nc2ccc(F)cc2Cl)nc2ccccc2c1=O
4.5%	-2	0%	?	CC(C)(CN1CCN(C(c2ccccc2)c2ccccc2)CC1)NS(=O)(=O)c1ccccc1
0.2%	-6	3%	-15%	CCC(NC(=O)NCc1ccc2c(c1)OCO2)(C(F)(F)F)C(F)(F)F
1.3%	.	1%	.	COc1c(F)cccc1C1=CC(=O)C[C@H](c2ccc3c(c2)OCO3)C1
3.9%	-9	4%	0%	CC(C)(C)N(Cc1cc2ccccc2[nH]c1=O)C(=O)C1CCCCC1
-1.0%	.	-8%	.	O=C(c1ccco1)N1CCC(c2nc3ccccc3[nH]2)CC1
-0.5%	-7	8%	-1%	CC(NS(C)(=O)=O)C(c1cccs1)N1CCN(C)CC1 (stereo unspecified)
-0.3%	-2	-9%	1%	CCOC(=O)CCCC(=O)N1CCOCCOCCOCC1
-0.2%	3	?	-7%	O=C(CC1NCCNC1=O)Nc1cc(Cl)cc(Cl)c1 (stereo unspecified)
0.9%	2	-15%	-3%	CN(C)S(=O)(=O)N(CC(=O)Nc1ccccc1)c1ccccc1
-1.5%	3	2%	-52%	Cc1ccn2cc(-c3cnoc3C)nc2c1
-3.5%	2	2%	18%	CCn1c(COc2ccccc2C)nnc1SCC(=O)N1CCN(c2ccccc2)CC1
-3.8%	.	1%	-3%	COc1ccc(-c2csc(NC(=S)NC(=O)c3ccco3)n2)cc1Br
0.6%	.	3%	-34%	O=C(NCC1CCCO1)c1cc2cc(Cl)ccc2[nH]1 (stereo unspecified)
-4.0%	0	-1%	1%	CCc1ccc(NC(=O)CS(=O)CC(=O)NCCCc2ccccc2)cc1 (stereo unspecified)
6.7%	-4	6%	-9%	CCOC(=O)C1CCN(S(=O)(=O)c2ccc(Cl)nc2)CC1
-3.1%	.	?	-3%	Nc1cc(Cl)ccc1Nc1ccncc1
1.8%	-6	12%	3%	CCOc1ccc(C2C(C(=O)O)c3ccccc3C(=O)N2CCN2CCOCC2)cc1 (stereo unspecified)
1.3%	.	5%	1%	OCC1(Cc2ccccc2F)CCCN(Cc2c(F)ccc(F)c2F)C1 (stereo unspecified)
-2.2%	8	3%	?	Cc1ccc(N(C(=O)Cc2c[nH]c3ccccc23)C(C(=O)NC2CCCCC2)c2ccco2)cc1 (stereo unspecified)
0.0%	4	-4%	-14%	COC(=O)c1c(NC(=O)CN2CCN(S(=O)(=O)c3ccccc3[N+](=O)[O-])CC2)sc2c1CCC(C)C2 (stereo unspecified)
?	3	-15%	-34%	Cc1cccc(N=CC=C2OC(C)(C)C(C)(C)O2)c1
0.4%	2	4%	-4%	COc1ccc(-n2nnnc2SCC(=O)c2ccc3c(c2)OCCO3)c(OC)c1
1.9%	.	7%	.	CC(C)N(C(=O)[C@H]1C[C@H](CC(=O)NCc2ccco2)C(=O)N2CCc3c([nH]c4ccc(Cl)cc34)[C@]12C)C(C)C
-0.2%	-1	2%	-4%	CC(=O)NC(Cc1ccc(F)cc1)C(=O)NC1CCN(c2nnnn2-c2ccccc2)CC1 (stereo unspecified)
-0.9%	-19	27%	-13%	COc1cc(OC)c(C2=NOC(C(=O)N3CCN(C(=O)c4ccco4)CC3)C2)cc1Cl (stereo unspecified)
-3.3%	6	11%	-7%	Cc1ccc(NC(=S)N(CCN(C)C)C(C)c2cccnc2)c(C)c1 (stereo unspecified)
0.4%	-1	0%	-2%	Cc1nnc(SCC(=O)NCc2ccccc2)n1-c1ccccc1
0.8%	.	13%	-3%	CC(C)C[C@@H](CN=[N+]=[N-])N1CCN(CC(C)C)CCC1=O
2.1%	3	-8%	-1%	Fc1ccc(C2=Nc3cccc4cccc(c34)N2)cc1
-3.8%	-6	2%	-55%	CC(=O)c1c(C)[nH]c(C(=O)Nc2ccc(C)c(S(=O)(=O)N(C)C)c2)c1C
0.4%	0	2%	-1%	CCOC(=O)C1=c2s/c(=C\c3cccnc3)c(=O)n2C(N)=C(C(=O)OC)C1c1cccnc1 (stereo unspecified)
-4.1%	.	-10%	.	CC(O)[C@H]1CN=C(N)N1CC1CCCCC1 (stereo partly specified)
-0.5%	1	-12%	0%	Cn1c(=O)c2c(nc(CN3CCCCC3)n2CCc2ccccc2)n(C)c1=O

Given with each value named: 2 of the compounds above.
> O=C(CC1NCCNC1=O)Nc1cc(Cl)cc(Cl)c1 (stereo unspecified)
  Rango-impB inh = -0.2%
  GLA inh pH 4.5 = 3
  Rango release inh = ?
  miR-21 FLuc = -7%

> CN(C)S(=O)(=O)N(CC(=O)Nc1ccccc1)c1ccccc1
  Rango-impB inh = 0.9%
  GLA inh pH 4.5 = 2
  Rango release inh = -15%
  miR-21 FLuc = -3%

(listing goes on)
Rango-impB inh	GLA inh pH 4.5	Rango release inh	miR-21 FLuc	SMILES
3.8%	.	-3%	.	CN(C(=O)c1ccc(NC(=O)Cc2cccc(NC(=O)C3CCCN(C(=O)c4ccccc4)C3)c2)cc1)C1CC1 (stereo unspecified)
0.1%	2	12%	0%	O=C(CNC(=O)c1ccccc1)NCCO
2.2%	-1	-3%	-4%	O=C(O)c1cc(-c2ccc(Cl)cc2)n[nH]1
-3.4%	-7	-7%	-18%	CCN(CC)c1ccc(NC(=O)c2cncc(Br)c2)cc1
?	.	?	.	CC1(C)c2[nH]c3ccccc3c2C[C@@H]2C(=O)N(Cc3ccc(F)cc3)C(=O)N21
-4.1%	.	-7%	.	COc1ccc(-c2sc3ccccc3c2/C=C/c2ccc(N)cc2)cc1
-0.2%	.	-15%	.	O=C(CN1C(=O)C(=O)N(Cc2ccccc2)C1=O)Nc1ccc(OC(F)F)cc1
-1.5%	.	10%	1%	CCN(c1cccc(C)c1)S(=O)(=O)c1nnc(NC(=O)c2ccco2)s1
?	-8	?	-11%	CCOC(=O)c1c(-c2ccccc2)csc1NC(=O)/C(C#N)=C/c1ccc(OC)c(OC)c1
1.8%	-4	1%	1%	O=[N+]([O-])c1cccc(-c2ccc(/C=N/n3c(-c4ccccc4)n[nH]c3=S)o2)c1
-0.5%	.	0%	.	COc1ccc(-c2csc(NC(C)c3nc4cc(C(=O)NCCCO)ccc4n3Cc3ccc(C)cc3)n2)cc1 (stereo unspecified)
2.9%	.	-14%	.	CN(C)c1nc2c(N)ncnc2n1C1OC(CO)C(O)C1O (stereo unspecified)
4.6%	-15	27%	-40%	O=C(NCCc1ccccc1)c1ccc(Cl)c([N+](=O)[O-])c1
0.4%	3	-8%	-15%	COc1ccc(-c2ccc3nnc(SCC(N)=O)n3n2)cc1
?	.	?	-18%	Cc1ccc(-c2n[nH]c(=S)nc2-c2ccc(C)cc2)cc1
-1.0%	.	12%	-21%	CC(=O)c1ccc(-n2cc(C#N)c(=O)[nH]c2=O)cc1
-1.0%	7	5%	-16%	CCCOc1ccc(C(=O)Nc2ccc(N(C)C)cc2)cc1
.	-1	.	0%	CCOc1ccc(C2/C(=C(/O)c3ccc(Cl)cc3)C(=O)C(=O)N2CCCN(C)C)cc1OC (stereo unspecified)
-3.3%	.	17%	.	CC(=O)NC12CC3CC(C1)CC(C(=O)N(C)CC(=O)Nc1ccccc1Cl)(C3)C2
-1.1%	-7	16%	-30%	CC(=O)OC1OCCOC1NC(=S)Nc1cccc(C(F)(F)F)c1 (stereo unspecified)
?	0	2%	-5%	Cc1nn(-c2ccccc2)c(Cl)c1/C=N/Nc1ccc(S(=O)(=O)Nc2ccccc2C(=O)O)cc1[N+](=O)[O-]
2.7%	.	-10%	0%&1%	COc1ccc(CNC(=O)c2nn(C)c3c2CS(=O)(=O)c2ccccc2-3)cc1
0.2%	.	-1%	.	NC(=O)c1cc(Cl)ccc1OCC(=O)NC1CC1
-0.1%	-1	5%	-20%	N#Cc1ccsc1NC(=O)CSc1ncnc2ccccc12

Record cards, from the list above. Values in the order: Rango-impB inh | GLA inh pH 4.5 | Rango release inh | miR-21 FLuc
CCCOc1ccc(C(=O)Nc2ccc(N(C)C)cc2)cc1 is listed as -1.0% | 7 | 5% | -16%
Cc1nn(-c2ccccc2)c(Cl)c1/C=N/Nc1ccc(S(=O)(=O)Nc2ccccc2C(=O)O)cc1[N+](=O)[O-] is listed as ? | 0 | 2% | -5%
COc1ccc(CNC(=O)c2nn(C)c3c2CS(=O)(=O)c2ccccc2-3)cc1 is listed as 2.7% | . | -10% | 0%&1%
CC(=O)NC12CC3CC(C1)CC(C(=O)N(C)CC(=O)Nc1ccccc1Cl)(C3)C2 is listed as -3.3% | . | 17% | .

(cont.)
Rango-impB inh	GLA inh pH 4.5	Rango release inh	miR-21 FLuc	SMILES
?	-5	?	-9%	CCOC(=O)c1c(NC(=S)Nc2ccccc2)sc2c1CCN(CC)C2
-4.4%	7	1%	3%	COc1ccccc1Nc1nc2cc(C)ccc2cc1C#N
-0.1%	.	1%	1%	CCC1(c2ccccc2)NC(=O)N(CC(=O)NCc2ccc(C)cc2)C1=O (stereo unspecified)
1.9%	3	1%	4%	Cc1ccc(N(C)C(=O)N2CCN(S(=O)(=O)c3c(C)cc(C)cc3C)CC2)cc1

From PubChem BioAssay

A portion of the library (hit frequency here may not be typical).
